Six1-Eya2 blk – qHTS Assay for Inhibitors of the Six1/Eya2 Interaction; Homeobox protein SIX1 (Homo sapiens) + Protein phosphatase EYA2 (Homo sapiens), …; AlphaScreen GST-Six1/His-Eya2 binding, biochemical; stronger effect = lower value; control for the full effect not named in the record; activity change, % (no concentration beside the values); 360,000 tested, 0.56% active; AID 651725, 2012; in the data active = activity change below about -65%; inconclusive = about -30% to -65%; inactive = above about -30%; also: % is scaled to controls: 0 for no effect and ±100 for the full control effect; compound concentration not given in the record
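Homogeneous AlphaScreen proximity assay pairing GST-Six1 with His-tagged Eya2 (added as 5X mix: 250 nM and 500 nM) in 50 mM Tris pH 8.0, 300 mM NaCl, 1 mM TCEP. Glutathione donor and nickel acceptor beads; 1 h, 37 °C, dark.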
CtBP-E1A blk – qHTS Assay for Inhibitors of the CtBP/E1A Interaction; 340,000 tested, 0.49% active; activity change, % (test concentration not listed); AID 651724, 2012; AlphaScreen GST-E1A/His-CtBP binding, 1536-well; stronger effect = lower value; control for the full effect not named in the record; CtBP / adenovirus E1A interaction (AlphaScreen); in the data active means activity change below about -65%; inconclusive means about -30% to -65%; inactive means above about -30%; also: % is scaled to controls: 0 for no effect and ±100 for the full control effect; compound concentration not given in the record
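In 5 uL wells, 23 nL compound meets equimolar GST-E1A and His-CtBP (5X stock 125 nM each) for 2 h, 37 °C. Beads (5X, 50 ug/mL) then 1 h, 37 °C, dark.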
PINK1 modulator – A Quantitative High throughput Screen to Identify Chemical Modulators of PINK1 Expression; PINK1 immunofluorescence, high-content cytometry, 24 h; Potency, µM (top dose mostly 76.6 µM), for the others: top-dose activation (PINK1 increase), usual class: activators; 410,000 tested, 0.2% active; active = well fitted activation curve with a large enough effect; inconclusive = small, poorly fitted or top-dose-only effect; inactive = flat fitted curve, though single readings scatter; cell line not stated here;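 also: potency is read from the fitted curve at half-maximal effect; % of control where 0% means no effect; nearly all actives have a fitted effect of over 65% in size; a mitochondrial uncoupler was the plate control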
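PINK1 protein level read as immunofluorescence by microplate cytometer in a fixed, stained stable cell line after 24 h exposure to five compound concentrations, with CCCP as control.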
TRPML1 agonist – qHTS for Agonists of the Human Mucolipin Transient Receptor Potential 1 (TRPML1). Mucolipin-1 (Homo sapiens), Q9GZU1. AID 624414, 2012. 410,000 tested, 0.12% active. TRPML1-expressing cells, Ca2+ dye fluorescence, FDSS; host cell line not named in the record; reference of the full effect not given here. activation, % (no concentration beside the values); in the data active = activation above about 50%; inconclusive = about 30% to 50%; inactive = below about 30%; also: 0% is about no effect; the text of the record puts the active cut at 80%
Target sequence (Q9GZU1 whole entry, looked up): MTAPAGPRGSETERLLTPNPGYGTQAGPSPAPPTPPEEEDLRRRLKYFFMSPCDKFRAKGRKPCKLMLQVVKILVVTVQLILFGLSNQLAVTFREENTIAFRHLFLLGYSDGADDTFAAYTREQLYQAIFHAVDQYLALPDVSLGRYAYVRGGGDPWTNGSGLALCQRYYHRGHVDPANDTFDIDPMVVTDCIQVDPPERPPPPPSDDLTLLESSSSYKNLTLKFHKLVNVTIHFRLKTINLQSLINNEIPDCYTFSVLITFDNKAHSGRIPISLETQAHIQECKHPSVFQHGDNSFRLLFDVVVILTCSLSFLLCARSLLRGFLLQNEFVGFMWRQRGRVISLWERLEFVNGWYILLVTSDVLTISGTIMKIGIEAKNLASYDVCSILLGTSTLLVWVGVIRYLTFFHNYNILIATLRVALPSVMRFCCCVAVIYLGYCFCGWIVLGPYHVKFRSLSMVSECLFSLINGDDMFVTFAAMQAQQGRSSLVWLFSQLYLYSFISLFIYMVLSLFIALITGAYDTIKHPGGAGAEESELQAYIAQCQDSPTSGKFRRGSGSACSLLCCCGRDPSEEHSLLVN
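Tetracycline-induced TRPML1-DL cells are seeded and incubated overnight before loading with a no-wash Ca2+ dye and quencher. Agonist activity is taken from the 110 s fluorescence read following compound pin-transfer on an FDSS, before EC80 54-4 challenge.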
TRPML1 inh – qHTS for Inhibitors of the Human Mucolipin Transient Receptor Potential 1 (TRPML1); Mucolipin-1 (Homo sapiens), Q9GZU1; TRPML1-inducible cells, Ca2+ dye fluorescence, FDSS; stronger effect = lower value; inhibition of EC80 agonist-evoked calcium signal; activity change, negative = inhibition, % (test concentration not listed); 390,000 tested, 0.02% active; AID 624415, 2012; in the data active means activity change below about -50%; inconclusive means about -30% to -50%; inactive means above about -30%;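 also: stimulus is agonist 54-4 at its EC80 concentration; % is scaled to controls: 0 for no effect and ±100 for the full control effect; compound concentration not given in the record; the text of the record puts the active cut at -80%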
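TRPML1-DL cells, Tet-induced overnight (~16 h, 37 °C) at 1,500 cells/well, were loaded with Ca8 no-wash dye plus quencher for 45-90 min at room temperature. Compounds were pinned during FDSS kinetic reading; agonist 54-4 at EC80 (4 uM final) then added.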
D2 agonist – Beta-Arrestin HTS for Positive Allosteric Modulators of the Human D2 Dopamine Receptor: Agonists; D(2) dopamine receptor (Homo sapiens), P14416; DiscoveRx PathHunter D2 beta-arrestin, luminescence, 90 min; 100% = 57 uM dopamine signal; activation, % (test concentration not listed); 360,000 tested, 0.084% active; AID 624465, 2012; in the data active = activation above about 40%; inconclusive = about 15% to 40%; inactive = below about 15%; also: compound concentration not given in the record; the text of the record calls up to 30% inactive
Target sequence (P14416 whole entry, looked up): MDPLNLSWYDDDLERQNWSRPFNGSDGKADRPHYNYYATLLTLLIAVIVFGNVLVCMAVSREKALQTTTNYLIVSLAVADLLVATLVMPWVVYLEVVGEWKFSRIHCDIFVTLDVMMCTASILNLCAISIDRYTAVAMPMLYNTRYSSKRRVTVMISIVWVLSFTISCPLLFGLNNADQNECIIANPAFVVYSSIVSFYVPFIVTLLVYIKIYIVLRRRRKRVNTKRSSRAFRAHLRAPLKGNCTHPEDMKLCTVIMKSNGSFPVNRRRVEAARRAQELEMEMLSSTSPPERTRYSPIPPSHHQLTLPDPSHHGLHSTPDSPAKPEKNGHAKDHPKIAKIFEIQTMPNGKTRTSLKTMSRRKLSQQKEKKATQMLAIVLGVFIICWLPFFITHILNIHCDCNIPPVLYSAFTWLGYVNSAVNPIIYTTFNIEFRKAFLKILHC
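DiscoveRx PathHunter D2 beta-arrestin cells (2,100/well) attached overnight, then compound-stimulated 90 min at 37 C in HBSS/10 mM HEPES/0.1% Tween-20 buffer; beta-galactosidase complementation read by luminescence after 1 h at ambient temperature. Dopamine 57 uM final (EC100) as control.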
* marks the source's active call; other numbers are inactive results; ? = inconclusive; · = no result given; & = joins results of further samples; [ ] = remark or other dose.

SMILES	Six1-Eya2 blk	CtBP-E1A blk	PINK1 modulator	TRPML1 agonist	TRPML1 inh	D2 agonist
CCC(=O)N1CCc2cc(S(=O)(=O)NC(Cc3ccccc3)C(=O)Nc3nccs3)ccc21 (stereo not drawn)	3	-4	9.7%	1.8	18	-4.0
Cc1ccc(N(Cc2ccccc2)C(=O)c2cc(S(=O)(=O)N3CCOCC3)ccc2F)cc1	-11	8	-0.9%	0.3	5	0.3
COc1ccc(CCC(=O)OCC(=O)N2CCN(S(=O)(=O)c3ccc(C)cc3C)CC2)cc1	1	1	1.8%	3.2	-8	-6.9
Cc1ccc2c(c1)c1c(n2CC(O)CNC2CCCCC2)CCCC1 (stereo not drawn)	?	?	-0.8%	0.1	19	-7.3
COc1cccc(N2CC(NC(=O)/C=C\c3ccccc3)CC2=O)c1 (stereo not drawn)	·	·	-0.6%	-0.7	0	·
Oc1ccccc1OCC(O)c1ccccc1 (stereo not drawn)	0	0	2.7%	-1.4	22	-4.7
CC(C)CNC(=O)c1cc2nc3c(c(C(F)(F)F)n2n1)CCc1ccccc1-3	3	3	6.2%	-1.8	71	-2.6
O=C(NCCc1ccc(Cl)cc1)c1nnc(Cc2ccc(Cl)cc2)o1	8	3	14%	-0.4	-13	-3.4
O=S(=O)(c1ccc2ncn(O)c2c1)N1CCOCC1	-9	-20	-2.2%	0.3	-9	-2.7
CCCCC(=O)N(C)c1c(CC)nc2c(OCc3ccc(C#N)cc3)cccn12	0	0	0.8%	-0.9	·	3.6
COc1cc(NC(=O)CN2C(=O)CCc3cc(Br)ccc32)cc(OC)c1OC	·	·	-5.2%	0.6	35	·
OCCN1CCN(c2ncnc3c2c(-c2ccccc2)cn3-c2ccc(F)cc2)CC1	-13	-2	-0.9%	-0.2	27	-16
COc1ccccc1N1C(=O)C2C(C(=O)c3ccccc3)=NN(c3ccc(Br)cc3)C2C1=O (stereo not drawn)	11	8	4.6%	9.0	-13	-3.5
O=C(COc1ccccc1[N+](=O)[O-])Nc1cc(C(=O)O)cc(C(=O)O)c1	2	6	1.5%	0.1	12	2.5
CC(NCc1cccs1)c1ccccc1 (stereo not drawn)	11	16	0.2%	1.8	8	-5.8
COc1ccc(N(CC(=O)Nc2cc(Cl)ccc2C)S(=O)(=O)c2c(C)noc2C)cc1	0	·	0.6%&4.0%	3.5&0.2	2&1	1.9
O=C(CCNC(=O)c1ccco1)NCCN1C(=O)S/C(=C\c2ccc(F)cc2)C1=O	-3	·	4.8%	-1.2	-11	0.5
C/C(Cn1nnc([N+](=O)[O-])n1)=N\NC(=O)c1cccc(Cl)c1	1	9	2.9%[38.3 µM]	0.4	-13	12
CCOc1ccc(-n2c(=O)c3c(C)c(C)sc3n(CC(=O)Nc3ccc(CC)cc3)c2=O)cc1	·	·	3.5%	0.3	23	·
O=C(CN1C(=O)/C(=C/c2ccccc2Cl)SC1=S)NC1CCS(=O)(=O)C1 (stereo not drawn)	-13	·	1.3%	-0.2	4	0.7
Cc1ccc2[nH]c3c(N4CCOCC4)ncnc3c2c1	-15	-17	-0.6%	0.0	23	-0.5
CCNC(=S)N1CCN(S(=O)(=O)/C=C/c2ccccc2)CC1	13	0	1.5%	1.7	-8	0.4
COc1ccc(C)cc1NC(=O)C(NS(=O)(=O)c1cccs1)c1ccccc1 (stereo not drawn)	·	·	11%	1.8	5	·
Cc1cc(NC(=O)c2ccccc2)cc(NC(=O)c2ccccc2)c1C	5	14	?	-0.9	4	0.0
Cn1c(=O)[nH]c(=O)c2c1nc(Br)n2C/C=N/NC(=O)c1ccccc1	2	-2	0.2%	0.4	-10	-2.9

By substructure: the entries above with a nitro group on carbon.
SMILES	Six1-Eya2 blk	CtBP-E1A blk	PINK1 modulator	TRPML1 agonist	TRPML1 inh	D2 agonist
O=C(COc1ccccc1[N+](=O)[O-])Nc1cc(C(=O)O)cc(C(=O)O)c1	2	6	1.5%	0.1	12	2.5
C/C(Cn1nnc([N+](=O)[O-])n1)=N\NC(=O)c1cccc(Cl)c1	1	9	2.9%[38.3 µM]	0.4	-13	12

Other entries:
SMILES	Six1-Eya2 blk	CtBP-E1A blk	PINK1 modulator	TRPML1 agonist	TRPML1 inh	D2 agonist
CCN1C(=O)CC(N2CCC(C(=O)N3CCOCC3)CC2)C1=O (stereo not drawn)	7	7	1.7%	-0.8	23	-0.2
Cc1ccc(CNC(=O)c2ccc(N3CCC4(CC3)CC(c3cccc(Br)c3)=NO4)c(NC(=O)c3cccc(C)c3)c2)cc1	0	1	0.8%	0.1	-6	-0.5
CCOC(=O)c1c(-c2ccc(C)cc2)csc1NC(=O)CCN1CCOCC1	-16	-7	4.2%	0.3	17	-0.5
CCCCOC(=O)C1=C(C)Nc2nnnn2C1c1ccccc1Cl (stereo not drawn)	6	-5	3.7%	0.0	-13	4.0
NC(=O)c1ncc(C(F)(F)F)cc1Oc1cccc(C(F)(F)F)c1	2	2	2.2%	-1.1	-22	-2.4
O=C(N/N=C/c1ccco1)c1ccccc1OCc1ccccc1Cl	-16	-20	0.2%	3.7	-6	-4.7
Cc1oc2ccc(OCc3cccc(Cl)c3)cc2c1C(=O)O	3	-5	-1.5%	1.0	18	1.5
O=C(CS(=O)CC(=O)N(CC(=O)NC1CCCC1)C1CCCC1)Nc1ccc(F)cc1 (stereo not drawn)	0	4	-3.1%[38.3 µM]	1.9	18	-1.4
Nc1ccn([C@@H]2O[C@H](C(=O)NCc3ccc4c(c3)OCO4)[C@@H](O)[C@H]2O)c(=O)n1	-14	-9	4.0%	0.0	-3	-6.3
COc1ccc(/C=C/C(=O)NCCn2c(C)cc3ccccc32)cc1OC	-15	-7	0.6%	0.7	15	3.1
O=C(Nc1ccc2c(c1)OCO2)c1cnn2c1NC(c1ccco1)CC2C(F)(F)F (stereo not drawn)	-2	-10	·	-0.2	0	-0.9
Cc1ccc(CNC(=O)c2nc(SCc3ccccc3F)ncc2Cl)cc1	·	·	-0.5%	1.5	-4	·
COc1cccc(NC(=O)CN2CCN(c3nc(-c4cccc(OC)c4)cs3)CC2)c1	-14	-16	-0.9%	0.0	-1	1.8
Cc1nc(C(F)(F)F)ccc1C(=O)N1CCC1(C)C(=O)NCc1cccs1 (stereo not drawn)	-11	-10	2.9%	0.2	·	-1.2
CC(C)(C)OC(=O)N1CCCN(C(=O)Nc2ccccc2)CC1	5	1	-1.2%	0.1	-8	-4.2
O=S(=O)(Nc1cccc2ccccc12)c1ccc2ccccc2c1	·	·	1.8%	2.6	-15	·
C=CCOc1cccc(C(=O)/C=C2/C(=O)Nc3ccccc32)c1	0	12	-3.6%	0.5	2	4.0
CCOC(=O)C1Nc2ccc(OC(F)(F)F)cc2C2C=CCC12 (stereo not drawn)	-17	-26	2.0%	-0.1	-23	0.5
Nc1c(N(Cc2ccccc2)C(=O)CCc2ccccc2)c(=O)[nH]c(=O)n1Cc1ccccc1	-6	18	-0.4%	-0.3	-12	-5.5
CC(C(=O)Nc1ccc(Cl)cc1)N(C)Cc1cccs1 (stereo not drawn)	1	19	3.0%	1.4	14	-1.2
COc1ccc2oc(C(=O)OC(C)C(=O)N3CCC(C)CC3)c(C)c2c1 (stereo not drawn)	8	-16	5.5%	2.4	-15	2.0
O=C1N=C2SCCN2/C1=C\c1ccccc1Cl	8	4	-1.1%	-0.1	23	-5.6
COc1ccc(CNC(=O)C(C)Sc2nc(-c3ccccc3)cc(C(F)(F)F)n2)cc1 (stereo not drawn)	·	·	15%	-0.1	-23	·
CN(C)S(=O)(=O)c1cccc(NC(=O)CN2C(=O)NC(Cc3c[nH]c4ccccc34)C2=O)c1 (stereo not drawn)	-5	-8	-2.4%	-0.7	15	-4.4
Cc1ccc(C2=NCCNC2=O)c(C)c1	3	-5	-0.1%[38.3 µM]	0.1	-10	-1.0

Part of the list above in a different format:
canonical_smiles | Six1-Eya2 blk | CtBP-E1A blk | PINK1 modulator | TRPML1 agonist | TRPML1 inh | D2 agonist
CC(C(=O)Nc1ccc(Cl)cc1)N(C)Cc1cccs1 (stereo not drawn) | 1 | 19 | 3.0% | 1.4 | 14 | -1.2
COc1ccc(CNC(=O)C(C)Sc2nc(-c3ccccc3)cc(C(F)(F)F)n2)cc1 (stereo not drawn) | · | · | 15% | -0.1 | -23 | ·

The list goes on.
SMILES	Six1-Eya2 blk	CtBP-E1A blk	PINK1 modulator	TRPML1 agonist	TRPML1 inh	D2 agonist
O=C(NCc1ccco1)c1ccccc1	5	-6	0.8%	0.2	-7	2.0
CC(c1ccccc1)n1c(-c2ccncc2)n[nH]c1=S (stereo not drawn)	1	-1	1.1%	0.0	21	-1.9
CN(c1ccccc1)S(=O)(=O)c1ccc(C(=O)N2CCN(c3ccccc3Cl)CC2)cc1	-7	·	3.5%	-1.0	26	0.9
CCOc1ccccc1CNS(=O)(=O)c1ccc2[nH]c(=O)sc2c1	-9	0	0.7%	0.0	6	2.2
O=C(CSc1nc2ccccc2s1)c1cc2ccccc2o1	11	15	-4.5%[38.3 µM]	2.2	-2	-0.4
c1ccc(-n2c(-c3ccco3)nnc2-c2ccco2)cc1	-5	5	1.4%	-0.4	-4	-2.3
COc1ccc(CCNS(=O)(=O)c2ccc3[nH]c(=O)[nH]c3c2)cc1	7	0	-2.2%	-0.4	15	-0.2
Cc1noc(NS(=O)(=O)c2ccc(NC(=O)c3ccccc3NS(=O)(=O)c3ccc(F)c(F)c3)cc2)c1C	14	-13	1.9%	-0.4	5	1.0
CC(=O)Nc1ccc(C(=O)OCC(=O)Nc2ccc(S(=O)(=O)N3CCOCC3)cc2)cc1	1	4	-0.5%	-0.1	8	1.7
O=C(/C=C1\SC(=O)NC1=O)Nc1ccc(C(=O)O)cc1	-3	-5	0.1%	·	·	-4.3
CSc1ccc(CCNC(=O)CCc2c(C)nc3ncnn3c2C)cc1	·	·	1.7%	-0.8	-11	·
CCc1ccc(C2=NNC(=Nc3c(C)n(C)n(-c4ccccc4)c3=O)SC2)cc1	11	-9	-0.6%	-0.4	7	-3.8
O=C(NNc1cccc([N+](=O)[O-])c1)/C(=C\c1cccnc1)NC(=O)c1ccccc1	0	·	-1.1%	0.9	-12	3.9
CC1CCCN(C(=O)C2CCN(S(=O)(=O)c3ccccc3)CC2)C1 (stereo not drawn)	2	-1	1.6%	-0.2	-17	-1.2
Cc1ccc(CC2CC(=O)N(c3cc(C)ccc3C)C2=O)cc1 (stereo not drawn)	0	·	1.2%	·	·	-0.3
CC1C(=O)N2CCCc3cc(NC(=O)C(=O)NCCc4ccc(F)cc4)cc1c32 (stereo not drawn)	-16	6	12%	-0.8	-4	7.0
c1ccc(-n2nnc3ccccc32)nc1	-1	2	-1.0%	3.7	6	-4.1
